Methyltransferases = Primary Screen for Target Class Profiling of Small Molecule Inhibitors of Methyltransferases | purified enzyme, MTase-Glo SAH luminescence; active compounds read low | calls only at 40 µM | 3.9% of 25,000 active | AID 1745853, 2022; active = -50% or lower on at least one of six enzymes; inconclusive = the cases between; inactive = as a rule above -30% on all six;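 note: enzymes were COMT GAMT GNMT HNMT NNMT and PNMT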
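Each enzyme was assayed with SAM and its substrate. SAH formation detected by MTase-Glo luminescence; single-point 40 uM screen[…].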
Calls only; i = inactive; ? = inconclusive; + = active, no number. % is set by controls: 0 for no effect and ±100 for the full control effect. Only part of the results is shown; the hit share may differ from the screen's.

| compound | Methyltransferases |
| --- | --- |
| O=C1NC(=O)/C(=C/c2ccc3c(c2)OCO3)S1 | ? |
| CN(C1CCc2nn(CC3CC3)c(=O)n2CC1)S(=O)(=O)c1cccnc1 (stereo not given) | i |
| CNC(=O)[C@H]1C[C@H](Oc2ccccc2)CN1Cc1cn(C)c2ccc(OC)cc12 | i |
| C=CCn1c(=O)c2ccc(C(=O)NC(C)CC)cc2n2c(=O)n(CC(=O)NC(C)C)nc12 (stereo not given) | i |
| CCCc1nc(C(=O)N[C@H]2COC[C@H]2Cc2cc(C)no2)cs1 | i |
| COc1ccc(C(=O)Cn2nc3n(CC(C)C)c(=O)c4ccccc4n3c2=O)cc1OC | i |
| CS(=O)(=O)N1Cc2ccccc2CC2(CCN(Cc3ccccn3)C2)C1 (stereo not given) | i |
| COc1ccc(CNC(=O)C2(C)Cn3cnc(C(=O)Nc4ccc(Cl)cn4)c3C(=O)N2C2CC2)cc1 (stereo not given) | i |
| Fc1ccc(C2Cn3cnc(-c4nc(-c5ccsc5)no4)c3CO2)cc1 (stereo not given) | i |
| Nc1ccn([C@H]2CC[C@@H](CO)O2)c(=O)n1 | i |
| Cc1ccc(NC(=O)CCc2nnc3n(Cc4ccccc4Cl)c(=O)c4ccccc4n23)cc1C | i |
| CCc1ccc(S(=O)(=O)c2nnn3c2nc(NCCCN2CCCC2=O)c2cc(Cl)ccc23)cc1 | i |
| CS(=O)(=O)c1ccc([C@@H](C[C@H]2CCC(=O)C2)C(=O)Nc2cnccn2)cc1Cl | ? |
| Cc1cc(C(=O)N(C)CC2(C)CCOCC2)nn1C | i |
| C/C=C1/[C@H](O[C@@H]2O[C@H](CO)[C@@H](O)[C@H](O)[C@H]2O)OC=C(C(=O)OC)[C@H]1CC(=O)O[C@@H]1O[C@H](CO)[C@@H](O)[C@H](O)[C@H]1O | i |
| COCC(=O)NC[C@H]1CCN(Cc2ccccn2)C[C@H]1N(C)C | i |
| COc1ccccc1CNC(=O)c1cc2n(n1)CC(C)(C(=O)NC1CCCCC1)N(C)C2=O (stereo not given) | i |
| Cc1ccc(C)c(N2C(=O)c3cc4sccc4n3CC2(C)C(=O)NC2CCCCCCC2)c1 (stereo not given) | i |
| COc1ccc(-n2c(CN)n[nH]c2=O)cc1OC | i |
| COc1ccc(OC)c(S(=O)(=O)N2CCC(n3c(C)cnc3C3CCOCC3)CC2)c1 | i |
| CN1C[C@@H](NC(=O)NC2CCCCC2)C[C@H]1c1nc(-c2cnccn2)no1 | i |
| COc1ccc(OC)c2c1cc1n2CC(C)(C(=O)NC2CCCC(C)C2C)N(Cc2ccco2)C1=O (stereo not given) | i |
| Cc1cccc(NC(=O)N2CCn3cccc3C2C(C)C)c1C (stereo not given) | i |
| Cc1nc(CN2Cc3nc(OCc4ccc(F)cc4)ccc3OCC2=O)cs1 | i |
| COc1cccc(Cn2nc3n(CCC(C)C)c(=O)c4ccc(C(=O)NC5CCCC5)cc4n3c2=O)c1 | i |
| O=C1CN(Cc2ccccc2Cl)S(=O)(=O)c2ccccc2N1Cc1cccc(F)c1 | i |
| Cc1ccc(CNC(=O)CSc2nnc3n(Cc4ccc(F)cc4)c(=O)c4ccccc4n23)cc1 | i |
| CCN1CCN(C(c2ccc(C)cc2)c2sc3nc(-c4ccco4)nn3c2O)CC1 (stereo not given) | ? |
| CC(C)CCNC(=O)C1(C)Cn2nc(C(=O)NCc3ccccn3)cc2C(=O)N1C (stereo not given) | i |
| Cc1ccc(CNC(=O)CSc2nnc3n(CCC(C)C)c(=O)c4ccccc4n23)cc1 | i |
| C=CC1C(OC2OC(CO)C(O)C(O)C2O)OC=C2C(=O)N3C(C(=O)O)Cc4c([nH]c5ccccc45)C3CC21 (stereo not given) | i |
| CCCCCOc1ccc2c(-c3ccccc3)cc(=O)oc2c1 | i |
| CCCn1c(=O)c2ccc(C(=O)NC(C)CC)cc2n2c(=O)n(Cc3ccccc3Cl)nc12 (stereo not given) | i |
| COC(=O)c1ncn2c1C(=O)N(Cc1ccc(OC(C)C)cc1)C(C)(C(=O)NC1CCCCC1)C2 (stereo not given) | i |
| C[C@H](Cc1ccccc1)Nc1ncnc2c1ncn2[C@@H]1O[C@H](CO)[C@@H](O)[C@H]1O | i |
| CC(C)OCCCn1c(=O)c2ccccc2n2c(SCC(=O)Nc3ccc(Cl)cc3)nnc12 | i |
| C=C1C(=O)O[C@@H]2/C=C(\CO)CC/C=C(\CO)[C@H](OC(C)=O)C(OC(=O)C(C)CC)C12 (stereo not given in full) | i |
| CCC(C)NC(=O)c1ccc2c(=O)n(C)c3nn(CC(=O)Nc4cc(F)ccc4F)c(=O)n3c2c1 (stereo not given) | i |
| CCCSCCCN1C(=O)c2cc(-c3ccc(OC)cc3)nn2CC1(C)C(=O)NCc1ccccc1 (stereo not given) | i |
| C=C1C(O)C(OC(=O)c2ccccc2)C2C(C)(C(=O)O)CCCC2(C)C1CC/C(C)=C\CO (stereo not given) | i |
| C=C(C)C1CCC2(C(=O)O)CCC3(C(=O)O)C(CCC4C5(C)CCC(O)C(C)(C(=O)O)C5CCC43C)C12 (stereo not given) | i |
| Nc1nc2c(nc(Br)n2C2OC3COP(=O)(O)O[C@@H]3C2O)c(=O)[nH]1 (stereo not given in full) | i |
| C=C[C@@]1(C)C=C2C(=O)C(O)=C3[C@](C)(C(=O)O)CC[C@@H]4C[C@]34[C@]2(O)C(=O)C1 | i |
| CN1CCN(S(=O)(=O)c2cc(C(=O)O)cc(-c3ccncc3)c2)CC1 | i |
| COC[C@H]1C[C@@H](NC(=O)Nc2ccc(F)cc2)[C@H](O)[C@@H]1O | i |

The last 4 entries of the section above lead into the next.
| compound | Methyltransferases |
| --- | --- |
| Nc1nc2c(nc(Br)n2C2OC3COP(=O)(O)O[C@@H]3C2O)c(=O)[nH]1 (stereo not given in full) | i |
| C=C[C@@]1(C)C=C2C(=O)C(O)=C3[C@](C)(C(=O)O)CC[C@@H]4C[C@]34[C@]2(O)C(=O)C1 | i |
| CN1CCN(S(=O)(=O)c2cc(C(=O)O)cc(-c3ccncc3)c2)CC1 | i |
| COC[C@H]1C[C@@H](NC(=O)Nc2ccc(F)cc2)[C@H](O)[C@@H]1O | i |
| COc1cc(C(=O)N[C@@H]2[C@@H](c3ccccc3)[C@@H](CO)N3CCCC[C@H]23)cc(OC)c1OC | i |
| COC(=O)c1cc2c(C(F)(F)F)cc(-c3ccccc3)cc2n1O | i |
| O=C(CSc1nnc2n(Cc3ccc(F)cc3)c(=O)c3ccccc3n12)Nc1ccc(F)cc1F | i |
| CC(N)=NCCCC[C@@H](N)C(=O)O | i |
| CCCN1C(=O)c2c(C(=O)NCc3ccccc3F)ncn2CC1(C)C(=O)NC1CCCC1 (stereo not given) | i |
| CCOc1ccccc1CNC(=O)c1cc2n(n1)CC(C)(C(=O)NC1CCCCCC1)N(C)C2=O (stereo not given) | i |
| COc1ccccc1CNC(=O)c1cc2n(n1)CC(C)(C(=O)NCc1ccc(C)cc1)N(C)C2=O (stereo not given) | i |
| CC(=O)N1CCN(c2nc3c(s2)CC(C(=O)NCc2ccc(C(C)C)cc2)CC3)CC1 (stereo not given) | i |
| COc1cc(F)c(-c2nccn2CC(O)c2ccccc2)cc1OC (stereo not given) | i |
| CCOC(=O)N1CCC(N[C@@H]2CC[C@@H]2NC(=O)CCn2cncn2)CC1 | i |
| CCCn1c(=O)c2ccccc2n2c(SCC(=O)Nc3cc(C)cc(C)c3)nnc12 | i |
| COc1ccc(CCNC(=O)CCc2nnc3n(Cc4ccc(Cl)cc4)c(=O)c4ccccc4n23)cc1OC | i |
| COC(=O)Cc1c(-c2ccccc2)c2cc(C)ccc2[nH]c1=O | i |
| CCN1C(=O)c2c(C(=O)NCc3cccc(Br)c3)ncn2CC1(C)C(=O)NC1CCCC1 (stereo not given) | i |
| C[C@@H]1O[C@@H](OC(=O)Cc2ccccc2)[C@H](O)[C@H](O)[C@H]1O | i |
| COC(=O)C1=CO[C@@H](O[C@@H]2O[C@H](CO)[C@@H](O)[C@H](O)[C@H]2O)[C@@H]2[C@@](C)(O)[C@@H](O)C[C@]12O | i |
| COc1ccc(C)cc1NC(=O)c1ncn2c1C(=O)N(C1CC1)C(C)(C(=O)NCc1ccc(F)cc1)C2 (stereo not given) | i |
| C=CCNC(=O)C[C@@H]1CCN(C(=O)c2cccnc2)C[C@@H]1CC | i |
| C[C@@H]1C(=O)OC2[C@H](O)[C@]34[C@H]5C[C@@H](C(C)(C)C)[C@]36[C@@H](OC(=O)[C@@H]6O)O[C@@]4(C(=O)O5)[C@]21O (stereo not given in full) | ? |
| O=c1c2ccccc2n2c(=O)n(Cc3cccc(Cl)c3)nc2n1Cc1ccc(F)cc1 | i |
| CCCOc1ccc(CN2C(=O)c3cc4occc4n3CC2(C)C(=O)NC2CCCCCC2)cc1 (stereo not given) | i |
| CC(=O)C1CCC2(C)C3=C(CCC12C)C1(C)CCC(=O)C(C)(C)C1CC3 (stereo not given) | i |
| COCC(=O)N1CCC(Oc2ccccc2C(=O)N2CCN(c3ccccn3)CC2)CC1 | i |
| CCCn1c(=O)c2ccc(C(=O)NC(C)C)cc2n2c(SCc3ccccc3F)nnc12 | i |
| CC1CCC(NC(=O)C2(C)Cn3c(cc4occc43)C(=O)N2CCCN2CCOCC2)CC1 (stereo not given) | i |
| O=C1CCCCC(CNC(=O)C2(c3ccccc3)CC2)N1 (stereo not given) | i |
| O=S(=O)(NC1CCCc2ccccc21)c1ccc2[nH]c3c(c2c1)CCCC3 (stereo not given) | i |
| COCCOC(=O)C1=C(C)NC(C)=C(C(=O)OC/C=C/c2ccccc2)C1c1cccc([N+](=O)[O-])c1 (stereo not given) | i |
| CC(C)Cn1c(=O)c2ccc(C(=O)NC(C)C)cc2n2c(SCC(=O)NCc3ccccc3)nnc12 | i |
| CCOc1ccc(CCN2C(=O)c3cc(-c4ccccc4)nn3CC2(C)C(=O)NCc2ccccc2)cc1 (stereo not given) | i |

Later entries:
SMILES | Methyltransferases
C[C@@H](c1ccc2nccn2c1)n1nnc2ncc(-c3cnn(C)c3)nc21 | i
O=C(NCCc1ccccn1)C1CCCN(c2nc(-c3ccccc3)nc3c2CCC3)C1 (stereo not given) | i
CN1c2ccccc2C(=O)N2CCc3c([nH]c4ccccc34)C21 (stereo not given) | i
O=S(=O)(c1ccccc1)c1cnc2c(N3CCNCC3)cccc2c1 | i
O=C(O)C1CCc2nnc(C3CCCN([S+](=O)([O-])c4cccc(C(F)(F)F)c4)C3)n21 (stereo not given) | i
CC(=O)O[C@H]1C(=O)[C@@]2(C)C([C@H](OC(=O)c3ccccc3)[C@]3(O)C[C@H](OC(=O)[C@H](O)[C@@H](NC(=O)c4ccccc4)c4ccccc4)C(C)=C1C3(C)C)[C@]1(OC(C)=O)CO[C@@H]1C[C@@H]2O (stereo not given in full) | ?
O=C1CCCCC(C(=O)N2CCOCC2)N1 (stereo not given) | i
CC(C)c1ccc(N2C(=O)c3cc4sccc4n3CC2(C)C(=O)NC2CCCCC2)cc1 (stereo not given) | i
CN1C(=O)c2cc(C(=O)NC3CCCCC3)nn2CC1(C)C(=O)NC1CCCCCC1 (stereo not given) | i
CCOCCCNC(=O)N1Cc2c(sc3c2CCCC3)-n2cccc2C1c1cccc(F)c1 (stereo not given) | i
O=C(NCCN1CCCCC1)C1CN(S(=O)(=O)c2cccnc2)CC12CCCCC2 (stereo not given) | i
C#CCCCn1cc(-c2cccc3c2N[C@H](C)CC(=O)N3)cn1 | i
COC1CN(c2cccc(F)c2)C12CCN(C(=O)CC1CCCCC1)CC2 (stereo not given) | i
O=[N+]([O-])c1cn2c(n1)OC[C@@H](OCc1ccc(OC(F)(F)F)cc1)C2 | ?
CCN(C(=O)Cn1c(=O)oc2cc(S(=O)(=O)N3CCCCC3)ccc21)c1ccccc1 | i
O=C(O)CC1CCCc2ccccc2C1O (stereo not given) | i
CCOc1ccc(NC(=O)N2CCn3cccc3C2C)cc1 (stereo not given) | i
Cc1cccc(N2CCN(C(=O)CCc3nnc4n(CCCOC(C)C)c(=O)c5ccccc5n34)CC2)c1C | i
CCCn1c(=O)c2ccc(C(=O)NCC(C)C)cc2n2c(=O)n(CC(=O)Nc3ccc(C)c(F)c3)nc12 | i
O=[S+]([O-])(Nc1ccccc1)c1ccc2c(c1)OCCN(Cc1cncnc1)C2 | i
CC(C)OCCCn1c(=O)c2ccccc2n2c(=O)n(CC(=O)NCc3ccccc3)nc12 | i
c1coc(-c2ccnc3nc(C4CCC4)nn23)c1 | i
CC(C)Cn1c(=O)c2ccccc2n2c(=O)n(Cc3c(F)cccc3Cl)nc12 | i
Cc1ccc(C)c(-c2cc(C(F)(F)F)nn2-c2ccc(S(N)(=O)=O)cc2)c1 | +

Reprinted at random: 6 entries already listed
SMILES | Methyltransferases
O=[S+]([O-])(Nc1ccccc1)c1ccc2c(c1)OCCN(Cc1cncnc1)C2 | i
CCOc1ccc(NC(=O)N2CCn3cccc3C2C)cc1 (stereo not given) | i
CC(C)Cn1c(=O)c2ccccc2n2c(=O)n(Cc3c(F)cccc3Cl)nc12 | i
CCCn1c(=O)c2ccc(C(=O)NCC(C)C)cc2n2c(=O)n(CC(=O)Nc3ccc(C)c(F)c3)nc12 | i
Cc1ccc(C)c(-c2cc(C(F)(F)F)nn2-c2ccc(S(N)(=O)=O)cc2)c1 | +
c1coc(-c2ccnc3nc(C4CCC4)nn23)c1 | i

Next entries
SMILES | Methyltransferases
COc1ccc(-c2cc3n(n2)CC(C)(C(=O)NCc2ccccc2)N(Cc2ccccc2F)C3=O)cc1 (stereo not given) | i
Cc1ccc(N2C(=O)c3cc4ccccc4n3CC2(C)C(=O)NCCC(C)C)cc1C (stereo not given) | i
COc1ccc(Cl)cc1NC(=O)CSc1nnc2n(CC(C)C)c(=O)c3cc(F)ccc3n12 | i
CS(=O)(=O)N1CCc2ccc(C(=O)NCc3ccc(OC(F)(F)F)cc3)cc21 | i
COCCN1CC(CO)C2(CCN(C3CCC3)CC2)C1 (stereo not given) | i
Cc1cccc(CN2CCc3nnc([C@@H]4C[C@@H](O)CN4C)n3CC2)c1 | i

Screening results deposited in PubChem by National Center for Advancing Translational Sciences (NCATS).
